GIRK2 act: activators of human GIRK2 potassium channels | P48051 | HEK293-GIRK2 thallium flux, Thallos fluorescence | calls only for hits at 25 µM | hit rate 0.05% among 63,000 | AID 1259325;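 active = among the strongest 0.2% of first-round signals and kept after retests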;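 also: first round at about 10 µM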
Target sequence (P48051 whole entry, looked up): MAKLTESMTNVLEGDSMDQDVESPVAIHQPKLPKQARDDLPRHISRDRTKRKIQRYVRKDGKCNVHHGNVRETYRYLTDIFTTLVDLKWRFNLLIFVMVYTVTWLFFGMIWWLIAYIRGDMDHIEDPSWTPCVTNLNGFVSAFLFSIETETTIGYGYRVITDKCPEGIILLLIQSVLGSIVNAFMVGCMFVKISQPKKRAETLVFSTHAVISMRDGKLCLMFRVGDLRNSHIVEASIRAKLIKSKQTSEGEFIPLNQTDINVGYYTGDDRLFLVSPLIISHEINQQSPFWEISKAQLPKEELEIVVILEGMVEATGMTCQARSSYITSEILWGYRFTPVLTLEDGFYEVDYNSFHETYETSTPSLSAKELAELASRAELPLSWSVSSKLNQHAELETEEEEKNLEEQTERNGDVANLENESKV
Calls only; i = inactive.

GIRK2 act	structure
i	O=C(Nc1nc2ccccc2s1)c1csc(-n2cccc2)n1
i	Cn1c(=O)[nH]c(=O)c2c1nc(NC1CCCC1)n2CCCc1ccccc1
i	COc1ccc(NC(=O)Cn2c(N3CCc4ccccc4C3)nc(C)cc2=O)cc1
i	COc1nn(C)cc1C(=O)NCCc1nc(C)cc(C(F)(F)F)n1
i	Cc1cc(C)c(S(=O)(=O)N2CCN(c3c(C)cccc3C)CC2)c(C)c1
i	COc1ccc(CC(=O)NCCN2CCN(c3ccc(F)cc3)CC2)cc1
i	CCCn1c(-n2nc(C)c(C)c2C)nc2c1c(=O)n(Cc1ccc(OC)cc1)c(=O)n2C
i	OC(COc1ccc(-c2nnco2)cc1)CN1CCOCC1 (stereo not given)
i	O=S(=O)(c1ccc(OC(F)(F)F)cc1)N1CCN(c2cc(-c3ccccc3)ncn2)CC1
i	COc1ccc(CNc2c([N+](=O)[O-])c(=O)n(C)c3ccccc23)cc1
i	Cn1c(=O)n(CC(=O)NC(C)(C)C)c(=O)c2c(N3CCN(C(=O)c4ccco4)CC3)ccnc21
i	NS(=O)(=O)c1ccc(NC(=O)c2coc(NC(=O)C3CCC3)n2)cc1
i	COc1ccccc1OCC(=O)N1CCC2(CC1)OCCCO2
i	COc1ccc(N2CC(C)Cn3c2nc2c3c(=O)n(CC(C)C)c(=O)n2C)c(OC)c1 (stereo not given)
i	Cc1nc(OCC(=O)Nc2ccccc2Cl)cc(-n2cccn2)n1
i	O=C(NCCc1ccccc1)c1n[nH]n2c1nc(=O)c1cc(Br)ccc12
i	COc1ccc(CNC(=O)Cn2ccn3nc(-c4ccc(OC)cc4)cc3c2=O)cc1
i	O=C(Nc1cccs1)N1CCC(Cn2ccnc2-c2ccccc2)CC1
i	CCCN1CCN(C(=O)c2cnn(-c3cc(-c4nc(C(C)(C)C)no4)ccn3)c2C)CC1
i	Cc1ccc(C)c(Cn2c(C3CC(=O)N(Cc4ccccc4)C3)nc3ccccc32)c1 (stereo not given)

Of the compounds above, five have a halogen.
GIRK2 act	structure
i	COc1nn(C)cc1C(=O)NCCc1nc(C)cc(C(F)(F)F)n1
i	COc1ccc(CC(=O)NCCN2CCN(c3ccc(F)cc3)CC2)cc1
i	O=S(=O)(c1ccc(OC(F)(F)F)cc1)N1CCN(c2cc(-c3ccccc3)ncn2)CC1
i	Cc1nc(OCC(=O)Nc2ccccc2Cl)cc(-n2cccn2)n1
i	O=C(NCCc1ccccc1)c1n[nH]n2c1nc(=O)c1cc(Br)ccc12

Other results
GIRK2 act	structure
i	Cn1c(C2CCN(S(C)(=O)=O)CC2)nn(CC(=O)N2CCc3ccccc32)c1=O
i	O=C(Nc1nccs1)C1CCN(C(=O)/C=C/c2ccco2)CC1
i	Cc1ccc(-c2nc(S(=O)(=O)c3ccc(F)cc3)c(N3CCOCC3)o2)cc1
i	Cc1ccc(-c2csc(NC(=O)c3ccc(COC(C)C)o3)n2)cc1
i	CCc1ccccc1NC(=O)Cc1csc(Nc2ccccn2)n1
i	COc1ccc(OC)c(NC(=O)CSc2nccn2-c2cccc(C(=O)Nc3ccccc3)c2)c1
i	Cc1ccc(-n2c(C)nc3ccc(NC(=O)CNC(=O)c4ccccc4)cc3c2=O)cc1
i	O=C(CCCn1c(=S)[nH]c2ccc(Br)cc2c1=O)N1CCN(c2ncccn2)CC1
i	CC(=O)c1sc(NC(=O)NCc2cccs2)nc1-c1ccccc1
i	Cn1c(-c2nc(C(=O)Nc3nc(CC(N)=O)cs3)cs2)cc2ccccc21
i	CCNC(=O)c1cn(-c2ccc(SCC(=O)N3CCCc4ccccc43)nn2)cn1
i	COCCCNC(=O)c1cn(C)nc1S(=O)(=O)N1CCN(c2ccc(Cl)cc2)CC1
i	COc1cc(C)c2c(c1C(C)C)C(=O)C(C)=CC2=O
i	CC(=O)Nc1nnc(S(N)(=O)=O)s1
i	CS(=O)(=O)c1ccccc1NC(=O)C1CCN(S(=O)(=O)c2ccc(F)cc2)CC1
i	COc1cccc(S(=O)(=O)NCC(=O)Nc2ccc3sc(C)nc3c2)c1
i	CCOc1ccccc1NC(=O)Nc1ccc2c(c1)C(=O)Nc1ccccc1O2
i	Cc1ccccc1-c1ccc(N2CCN(C(=O)Nc3ccccc3F)CC2)nn1
i	NC(=O)c1ccccc1OCC#CCNC(=O)CSC1CCCC1
i	CCCS(=O)(=O)N1CCN(c2cc(OC)nc(OC)n2)CC1
i	O=S(=O)(Nc1cccc(N2CCCS2(=O)=O)c1)c1cccs1
i	O=C(NCCN1CCN(c2ccccc2)CC1)c1ccccc1C(F)(F)F
i	CCCc1cc(=O)[nH]c(=S)[nH]1
i	NC(=O)c1scc(-c2ccc(Cl)cc2)c1-n1cccc1
i	COCCNC(=O)CSc1nc(-c2ccc(C)cc2)[nH]c1-c1ccc(OC)cc1
i	O=C(c1cccs1)N1CCC(Oc2nc3ccccc3s2)CC1
i	O=C(NCCn1cnc(-c2ccccc2)cc1=O)c1cc2ccccc2oc1=O
i	O=S(=O)(NC1CCCCC1)c1cccc2nsnc12
i	CSc1cccc(NC(=O)CN2CCN(Cc3cnnn3-c3ccccc3F)CC2)c1
i	Cc1nc2ccc(NC(=O)c3cc4ccccc4oc3=O)cc2c(=O)n1-c1ccc(F)cc1
i	CCOC(=O)Cn1c(=NC(=O)CSC(C)=O)sc2cc(F)ccc21
i	O=c1[nH]c(=S)c2c(n1Cc1ccccc1Cl)CCC2
i	N#Cc1ccccc1NC(=O)CSc1nccn1-c1ccc(C(=O)NCc2ccccc2F)cc1
i	COc1cccc(N2CC(C(=O)N(CCc3cccs3)Cc3ccco3)CC2=O)c1 (stereo not given)
i	C/C=C/CN1CCCn2c1nc1c2c(=O)n(C)c(=O)n1C
i	Cc1c(Cl)cccc1NC(=O)c1coc(NC(=O)C2CC2)n1
i	Cc1[nH]c(=O)[nH]c(=O)c1CCc1nnc(SCC(=O)Nc2nncs2)o1
i	O=C(Cn1nc(-c2cccs2)c2sc(N3CCCCC3)nc2c1=O)Nc1ccc(Cl)cc1
i	COCCn1c(=O)c2c(nc3n(-c4cccc(C)c4)c(-c4ccccc4)cn23)n(C)c1=O
i	Cc1cc(C)cc(N2C(=O)CSC23C(=O)N(CC(N)=O)c2ccccc23)c1 (stereo not given)
i	CC(C)CNC(=O)Cc1ccc(-n2c(=O)c3ccccc3n(CC(=O)NC3CCCCC3)c2=O)cc1
i	O=C(CN1CCN(Cc2nc3ccccc3n2Cc2ccccc2)CC1)NCC1CCCO1 (stereo not given)
i	Cc1cccc(F)c1Nc1ccccc1CC(=O)O
i	Cc1cc(C)c2c(n1)nn1c(N3CCN(C4CCCCC4)CC3)cc(C)nc21
i	COc1ccc(OC)c(NC(=O)c2c3c(nn2C2CCS(=O)(=O)C2)CCC3)c1 (stereo not given)
i	CCOc1ccc(-c2[nH]ncc2-c2nc(-c3cccs3)no2)cc1Cl
i	CCc1ccc(S(=O)(=O)Nc2cnc(N3CCCC3)nc2)cc1
i	Cc1cc(C)n(-c2nc(CCNC(=O)c3cc(=O)c4ccccc4o3)cs2)n1
i	Cc1cc(C)cc(-n2cc(C(=O)N3CCC(NC(=O)CC4CCCCC4)CC3)nn2)c1
i	Cc1nc(-c2ccccc2Cl)sc1CNC(=O)CC1CSc2ncc(C)c(=O)n21 (stereo not given)
i	O=C(N1CCC(Oc2ccc(C(F)(F)F)cn2)CC1)C1(c2ccccc2)CCOCC1
i	CCOc1ccc2nc(SCCN(C)C)[nH]c2c1
i	COc1ccc(C(=O)NCc2ccc3c(c2)OCO3)nn1
i	CCOc1ccccc1Oc1coc2cc(O)ccc2c1=O
i	COC(=O)N1CCc2ccccc2C1C(=O)Nc1ccc(S(N)(=O)=O)cc1 (stereo not given)
i	COc1cc(OC)c(-n2nnc(-c3nc(-c4ccccc4)cs3)c2N)cc1Cl
i	CS(=O)(=O)N1CCN(C(=O)C2COCC(=O)N2Cc2ccccc2)CC1 (stereo not given)
i	CCOC(=O)N1CCN(c2ncnc3c2cnn3-c2ccc(C)c(C)c2)CC1
i	COc1ccc(N(C)S(=O)(=O)c2ccsc2-c2nc(-c3ccc4c(c3)OCO4)no2)cc1
i	CCOC(=O)c1ccc(-n2c(N3CCCC3)nc3ccccc3c2=O)cc1

Additional entries
GIRK2 act	structure
i	CCOC(=O)c1c(NC(=O)CCSc2nnc3ccccn23)sc2c1CCC(C)C2 (stereo not given)
i	CCc1nc2sc(C(c3ccc(Cl)cc3)N3CCCC(C)C3)c(O)n2n1 (stereo not given)
i	O=C(c1ccco1)N1CCN(C(=O)C2CC2c2cccs2)CC1 (stereo not given)
i	COc1ccc(NC(=O)Cn2nc3c(Sc4cccc(F)c4)nccn3c2=O)cc1Cl
i	Cn1c(C2CCN(S(C)(=O)=O)CC2)nn(Cc2cccc3ccccc23)c1=O
i	O=C(CC1CCCCN1S(=O)(=O)c1ccccc1)NCc1cccs1 (stereo not given)
i	O=C(c1ccc(F)c(F)c1)N(CCc1cccs1)Cc1ccco1
i	CCOC(=O)Cn1c(=O)c2c(nc(-n3nc(CC)cc3CC)n2CC)n(C)c1=O
i	COc1ccc(-c2ccc(S(=O)(=O)NC3(C(=O)O)CCCCC3)cc2)cc1
i	C=CCn1c(=O)c(C(=O)Nc2ccc(F)c(F)c2)c(O)c2ccccc21
i	CC1=NN(CCN2CCC(Cc3ccccc3)CC2)c2nc3c(c(=O)n(C)c(=O)n3C)n2C1C (stereo not given)
i	O=C(CSc1nccn1-c1ccc(C(=O)NCc2ccco2)cc1)Nc1ccc2c(c1)OCCO2
i	COc1ccccc1OCCCC(=O)Nc1ccccc1C(C)C
i	CCOc1ccc(CC(=O)N2CCN(c3nnc(SCC(=O)NC)s3)CC2)cc1
i	Cc1nnc(C2CCN(C(=O)c3ccccc3Br)CC2)s1
i	O=C(NCc1ccccc1)N1CCC(c2nnc(C(F)(F)F)o2)CC1
i	COCCN(Cc1ccsc1)C(=O)Cc1cccc(OC)c1
i	COc1cccc(OC)c1C(=O)Nc1ccc(C)c(N2CCCC2=O)c1
i	CCN(CC)c1nc2ccsc2c(=O)n1CCC(=O)NCCCc1ccccc1
i	COc1nn(C)cc1C(=O)NCCOc1cccc2cccnc12
i	COc1ccc(NC(=O)c2nnn(Cc3ccc(OC)c(Br)c3)c2N)c(OC)c1
i	CC(=O)c1cccc(NC(=O)CCCn2nnc3ccccc3c2=O)c1
i	Clc1ccc(-c2nn3ncccc3c2-c2ccnc(Nc3ccccc3)n2)cc1
i	COc1ccc(S(=O)(=O)N(CCc2cccs2)C2CC2)cc1Cl
i	Cc1cccc(-n2c(C)c(C)n3c4c(=O)n(CC(=O)OCc5ccccc5)c(=O)n(C)c4nc23)c1
i	Cc1cn2c(CCC(=O)Nc3nc(C)c(C(=O)N(C)C)s3)csc2n1
i	COc1ccc(C2CC3C4NN=C(SCC(=O)Nc5ccccc5C(F)(F)F)N4C=CN3N2)cc1 (stereo not given)
i	CC(C)(C)c1ccc(NC(=O)N(CCc2cccs2)C2CC2)cc1
i	Cc1cc(C(O)CCNS(=O)(=O)c2ccc(NC(=O)C(C)C)cc2)c(C)o1 (stereo not given)
i	COc1ccc(C(=O)NC2CCN(C(=O)c3cc(-c4cccs4)[nH]n3)CC2)cc1
i	Cc1ccc(S(=O)(=O)c2c(C)nn(C(C)(C)C)c2OC(=O)c2cccc(C(F)(F)F)c2)cc1
i	COC(=O)c1ccc(N/C=C(\C#N)c2nc(-c3ccc4c(c3)OCO4)cs2)cc1
i	CCCS(=O)(=O)N1CCc2ccc(NC(=O)C3(c4cccs4)CCCC3)cc2C1
i	CCc1noc(-c2cnc3nc(C)ccc3c2Nc2ccc3c(c2)OCCO3)n1
i	CCOC(=O)c1c(NCc2ccc3c(c2)OCO3)c2ccc(Cl)cc2[nH]c1=O
i	CN(C)C(CNC(=O)c1ccc(Cl)s1)c1cn(C)c2ccccc12 (stereo not given)
i	COc1ccc(CCNC(=O)NCC2CCN(c3cnccn3)CC2)cc1
i	CCc1nc2sc(C(c3ccc(Br)cc3)N3CCN(CC)CC3)c(O)n2n1 (stereo not given)
i	O=C(CSc1nc2c(sc3ncccc32)c(=O)n1Cc1ccccc1)NCCc1ccccc1
i	COc1ccc(/C=C2\Oc3c(ccc4c3CN(C3CCS(=O)(=O)C3)CO4)C2=O)cc1 (stereo not given)

Filtered by structure, those above containing a tert-butyl group.
GIRK2 act	structure
i	Cn1c(=O)n(CC(=O)NC(C)(C)C)c(=O)c2c(N3CCN(C(=O)c4ccco4)CC3)ccnc21
i	CCCN1CCN(C(=O)c2cnn(-c3cc(-c4nc(C(C)(C)C)no4)ccn3)c2C)CC1
i	CC(C)(C)c1ccc(NC(=O)N(CCc2cccs2)C2CC2)cc1
i	Cc1ccc(S(=O)(=O)c2c(C)nn(C(C)(C)C)c2OC(=O)c2cccc(C(F)(F)F)c2)cc1

(more compounds)
GIRK2 act	structure
i	Cc1c(S(=O)(=O)c2ccc(Cl)cc2)nnn1-c1ccccc1F
i	CCOCCn1c(=O)c2c(nc3n(-c4ccccc4C)c(C)cn23)n(C)c1=O
i	CCOc1ccc(NC(=O)Cn2cc(C(=O)c3ccc(Cl)cc3)c(=O)c3cc4c(cc32)OCCO4)cc1
i	Cc1cc(C(=O)NCC(Cc2cccc(F)c2)N2CCCC2=O)c(C)o1 (stereo not given)
i	CCc1nnc(C2CCN(C(=O)Nc3cccc(OC)c3)CC2)s1
i	Cc1nc(Nc2ccc(NC(=O)Cn3cnc4ccccc43)cc2)cc(-n2cccn2)n1
i	COc1cc(NS(=O)(=O)Cc2cccc(F)c2)ccc1N1CCCC1=O
i	CCOc1ccccc1C(=O)NCC1CCN(c2cnccn2)CC1
i	Cc1cc(C)n(-c2ccc(C(=O)NCCNC(=O)c3ccc(NC(=O)C4CC4)cc3)nn2)n1
i	CCc1cccc2sc(N(CCCn3ccnc3)C(=O)c3ccc4c(c3)OCCO4)nc12
i	CC(C)C(=O)N1N=C(C2CC2)CC1c1cc2cc3c(cc2nc1Cl)OCO3 (stereo not given)

Some of the entries so far, with bars between the fields:
smiles | GIRK2 act
CC(=O)c1sc(NC(=O)NCc2cccs2)nc1-c1ccccc1 | i
Cn1c(-c2nc(C(=O)Nc3nc(CC(N)=O)cs3)cs2)cc2ccccc21 | i
CCNC(=O)c1cn(-c2ccc(SCC(=O)N3CCCc4ccccc43)nn2)cn1 | i
COCCCNC(=O)c1cn(C)nc1S(=O)(=O)N1CCN(c2ccc(Cl)cc2)CC1 | i
COc1cc(C)c2c(c1C(C)C)C(=O)C(C)=CC2=O | i
CC(=O)Nc1nnc(S(N)(=O)=O)s1 | i

High-throughput results as filed in PubChem BioAssay.

A portion of the library; the hit share may differ from the screen's.
